Bioassay records (PubChem BioAssay)
RGS16-Gao HTS: modulates binding between human RGS16 and Galphao. O15492+P09471. bead-based flow cytometry RGS16-Galphao binding, fluorescence; actives lie on both sides. binding response (% of control), % at 10 µM. 220,000 compounds, 0.38% hits;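 active means below 25% or above 175%, edge rows of some plates excepted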;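 further: Galphao activated by GDP with aluminum fluoride before binding; 100% = wells without compound and 0% = beads without RGS; some results beyond the cut were filed as inactive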
Target sequence (O15492 whole entry, looked up): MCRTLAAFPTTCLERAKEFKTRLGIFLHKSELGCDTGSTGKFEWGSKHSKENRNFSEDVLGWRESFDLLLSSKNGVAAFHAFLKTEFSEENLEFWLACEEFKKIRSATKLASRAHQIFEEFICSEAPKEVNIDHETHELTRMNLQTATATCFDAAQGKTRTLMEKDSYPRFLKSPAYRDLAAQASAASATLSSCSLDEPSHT
Target sequence (P09471 whole entry, looked up): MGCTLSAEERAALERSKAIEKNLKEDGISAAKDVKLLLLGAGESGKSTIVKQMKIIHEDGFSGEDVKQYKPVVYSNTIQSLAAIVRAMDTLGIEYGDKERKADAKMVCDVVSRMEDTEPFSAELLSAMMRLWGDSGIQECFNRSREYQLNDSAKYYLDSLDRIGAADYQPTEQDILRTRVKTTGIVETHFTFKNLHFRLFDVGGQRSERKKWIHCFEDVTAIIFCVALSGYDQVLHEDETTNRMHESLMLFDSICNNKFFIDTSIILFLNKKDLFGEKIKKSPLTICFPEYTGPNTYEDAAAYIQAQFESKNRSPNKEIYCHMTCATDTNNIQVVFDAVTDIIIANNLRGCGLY
INS promoter inh: TRM-6 insulin promoter activity inhibition; inhibition, % at 2 µM; 130,000 compounds, 0.9% hits; TRM-6 cells (human fetal islet line), insulin promoter-eGFP reporter, imaging; reporter expression induced with tamoxifen;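 active means inhibition above the mean plus 3 SD, with well images judged a real hit on visual review, cut at about 60% in these data, passing the limit was not always enough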
GALR2 agonist: GALR2 (human) receptor agonism; O43603; GALR2-expressing cells, agonist activation read-out; activation, %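 (tested at 5 µM)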; 140,000 compounds, 0.48% hits;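 active means above mean plus 3 SD of all compounds, about 5% in these data, not always enough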;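 further: 0% = vehicle buffer wells and 100% = reference agonist at full effect; tested in CHO reporter cells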
Target sequence (O43603 whole entry, looked up): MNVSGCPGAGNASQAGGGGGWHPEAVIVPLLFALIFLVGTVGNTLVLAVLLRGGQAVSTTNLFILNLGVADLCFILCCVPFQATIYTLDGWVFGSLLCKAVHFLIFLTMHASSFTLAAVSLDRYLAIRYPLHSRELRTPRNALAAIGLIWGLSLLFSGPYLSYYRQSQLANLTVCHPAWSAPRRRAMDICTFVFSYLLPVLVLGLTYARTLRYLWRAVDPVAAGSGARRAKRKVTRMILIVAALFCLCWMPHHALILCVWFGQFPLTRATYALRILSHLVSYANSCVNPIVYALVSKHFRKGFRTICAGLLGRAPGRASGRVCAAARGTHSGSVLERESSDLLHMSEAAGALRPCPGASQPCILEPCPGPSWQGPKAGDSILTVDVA
HSV augment: HSV replication enhancement; HSV replication augmentation in cells, fold increase; maximum fold increase; 220,000 compounds, 0.005% hits; AID 1956;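 active means peak rise of 1.5-fold or more in the series; tested in PC3 cells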;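 further: first round at 10 µM; read as green reporter fluorescence; hits show the peak of a series up to 25 µM; 1 = signal of infected wells without compound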
PKD1 kinase inh: blocks activity of human protein kinase D1. inhibition, %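 (about 10 µM by stock and volumes)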. PKD1 kinase fluorescence polarization assay. 200,000 compounds, 0.056% hits;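 active means inhibition of 50% or more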;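 further: controls were vehicle for no effect and a reference inhibitor for full effect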
INS promoter inh cell count: also measured in INS promoter inh; calls as there; normalized cell count, %; measured here: cell count, toxicity; reference of the scale not given here;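 cells exposed to compound for 48 h; stained nuclei by imaging scaled within each plate; lower means fewer cells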
HSV augment primary fold: also measured in HSV augment; calls as there; fold increase; compound at 10 µM; measured here: primary screen fold increase 10 uM; tested in PC3 cells;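 GFP signal in the first replicate; 1 = infected wells without compound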
Active calls of the source: *; i = inactive; . = not tested or not shown.

SMILES,HSV augment,HSV augment primary fold,INS promoter inh cell count,GALR2 agonist,RGS16-Gao HTS,INS promoter inh,PKD1 kinase inh
O=C(NC(=S)NNC(=O)c1cnccn1)c1ccc(Cl)cc1,i,0.79,.,.,102,.,.
Cc1nnc(NC(=O)c2nn(CC(C)C)c(=O)c3ccccc23)s1,i,0.99,.,.,95,.,4
CC(CCCC(C)(C)O)NCCO (centres undefined),i,1,.,-1.1,.,.,-12
Cc1ccccc1NC(=O)CC1(c2ccc(N(C)C)cc2)C(=O)c2ccccc2C1=O,i,0.97,96,-2.5,98,16,-11
O=C(NC(=S)Nc1ccccc1N1CCOCC1)c1ccc(-c2cccc(Cl)c2)o1,i,0.93,.,-0.3,98,.,-9
COc1ccc(N2C(=O)[C@@H]3[C@H](C2=O)[C@H]2c4ccccc4C=CN2[C@@H]3C(C)=O)cc1,i,1.1,67,-2.5,79,-21,-17
O=C(CSc1nc2cc(Cl)ccc2c(=O)n1Cc1ccco1)Nc1ccc(S(=O)(=O)N2CCOCC2)cc1,i,0.82,113,-1.1,100,-77,3
C/C(N)=C(/C#N)C(=O)COc1ncnc2ccccc12,i,0.85,.,-1.7,103,.,-1
CCCCS(=O)CC(O)COc1ccc(C(C)(C)C)cc1 (centres undefined),i,0.94,71,0.1,98,34,-8
Cn1nc(NC(=O)CC23CC4CC(CC(C4)C2)C3)c2c(F)cccc21,i,0.92,.,.,95,.,.
CC(=O)c1ccc(NC(=O)c2ccc(S(=O)(=O)c3ccccc3)cc2)cc1,i,0.91,162,-0.1,77,-52,-3
CCC(C)(C)n1nnnc1C(c1ccc(Cl)cc1)N1CCN(C)CC1 (centres undefined),i,0.94,.,-1.6,99,.,1
O=C(Cc1ccc(-c2ccccc2)cc1)NCCN1CCOCC1,i,1,.,-0.9,102,.,-7
C=CCn1c(CSCc2ccccc2)nnc1SCC(=O)N1CCN(c2ccccc2)CC1,i,1,.,0.3,100,.,-11
O=c1[nH]c2cnccc2n1-c1ccccc1,i,0.98,.,-0.9,101,.,2
CCOC(=O)c1cnc2c(Cl)cccc2c1NCCN(C)C,i,1.1,195,0.1,114,5,-7
CCCC(=O)NCCc1cc2ccc(C)c(C)c2[nH]c1=O,i,0.91,.,-2.6,100,.,-6
CCC[C@@H]1C[C@@]1(CCC)[C@@H](NC(=O)c1ccccc1)c1ccc(C(=O)OC)cc1,i,1.5,60,-1.9,100,-10,-15
CCOC(=O)c1ccc(NC(=O)CSc2nnc(C3CCCCC3)n2C)cc1,i,0.93,79,-1.9,232,-95,5
COc1cccc(/C=N/NC(=O)CC(=O)NCCc2ccccc2)c1OC,i,0.98,106,-1.1,99,-67,0

Continued.
SMILES,HSV augment,HSV augment primary fold,INS promoter inh cell count,GALR2 agonist,RGS16-Gao HTS,INS promoter inh,PKD1 kinase inh
CCCOCCOC(=O)C1=C(C)NC(=O)NC1c1cc(Cl)c(O)c(OC)c1 (centres undefined),i,0.99,.,-3.2,102,.,-7
O=C(NCCOCCNC(=O)OCc1ccccc1)OCc1ccccc1,i,1,96,.,102,44,5
CC(C)=C(NC(=O)c1ccco1)C(=O)NCCc1nc2ccccc2[nH]1,i,1,.,-3.4,121,.,-3
CC(=O)Nc1scc(-c2ccccc2)[n+]1-c1ccc(C)cc1,i,0.9,74,.,103,0,0
CCc1cc2c(C)cc(=O)oc2cc1Oc1ncccc1[N+](=O)[O-],i,0.99,.,.,108,.,-1
COC(=O)c1c(NC(=O)c2ccccc2)sc(C(=O)c2ccccc2)c1C,i,1.1,78,-0.8,102,-26,-2
CSc1nc(-c2ccccc2)c(C#N)c(=O)n1C,i,0.89,.,.,100,.,-1
COC(=O)N/N=C\c1cc2c(cc1Br)OCO2,i,1,.,.,98,.,-4
CCOC(=O)c1cn2c(C)cccc2n1,i,1,65,.,101,13,-4
Cc1sc2nc(CSCC(=O)N(C)c3ccccc3)[nH]c(=O)c2c1C,i,0.96,90,-1.6,97,10,1
CCOc1cc2[nH]c(=S)n(CCC(=O)NCc3ccc(OC)cc3)c(=O)c2cc1OCC,.,.,135,-1.7,110,-8,-8
O=C(/C=C/c1ccc(OC(F)F)cc1)OCC(=O)N1CCN(C(=O)c2ccco2)CC1,i,1,119,-1.6,93,13,-13
CC(C)(C)C(=O)N1CCC(O)(CS(=O)(=O)c2ccc(Cl)c(Cl)c2)CC1,i,1,120,.,114,22,0
CCc1ccc(CN(C)Cc2nc(Cc3cccc(C(F)(F)F)c3)no2)nc1,i,0.99,.,.,100,.,-7
NC(=O)Cc1nc2scc(-c3ccc(Cl)cc3)c2c(=O)[nH]1,i,1.2,.,.,102,.,-6
O=C(O)c1ccc(NCc2cccnc2)cc1,i,0.98,157,-2.4,101,-77,-2
O=C(O)CCCN1C(=O)NC2NC(=O)NC21 (centres undefined),i,0.89,75,-1.2,104,38,-15
Cc1c(C(=O)Nc2cccc(Cl)c2)oc2ccc(S(=O)(=O)N3CCC4(CC3)OCCO4)cc12,.,.,.,-0.8,106,.,-14
COc1ccccc1-n1c(C)nnc1SCC(=O)NCc1ccccc1,i,0.86,96,-0.8,91,-18,-7
O=C(Nc1nc(-c2ccc3c(c2)OCO3)cs1)C1CC1,i,0.97,107,-0.9,105,-29,-2

(listing goes on)
SMILES,HSV augment,HSV augment primary fold,INS promoter inh cell count,GALR2 agonist,RGS16-Gao HTS,INS promoter inh,PKD1 kinase inh
O=S(=O)(c1ccc2oc(=S)[nH]c2c1)N1CCCCC1,i,1.2,.,.,99,.,.
O=C(NNC(=O)c1ccc2ncccc2c1)c1ccc(Cl)cc1,i,1,.,.,100,.,-3
COc1ccc(NC(=O)CSC2CC(=O)N(c3ccc4c(c3)OCCO4)C2=O)cc1 (centres undefined),i,0.92,129,-1.2,99,19,3
O=C(c1ccc2snnc2c1)N1CCOCC1,i,0.95,81,-1.9,102,-26,1
COc1cc2c(cc1OC)C(c1ccccc1)N(C(=O)CSCC(=O)O)CC2 (centres undefined),i,0.99,.,.,99,.,-7
COc1ccc(CCNC(=S)Nc2cccc3ccccc23)cc1,i,0.95,99,-1.5,109,-21,-5
O=C(O)c1cccc(S(=O)(=O)Nc2ccccc2-c2ccccc2)c1,i,0.82,.,.,100,.,-6
N#CC1=C(N)N(c2ccccc2)C2=C(C(=O)CCC2)C1c1ccccc1 (centres undefined),i,0.72,79,-0.4,99,25,-7
Cc1ccc(S(=O)(=O)Nc2nc(C)c(C(=O)Nc3ccccc3)s2)cc1,i,0.94,131,-0.3,65,7,1
COc1cccc(-n2cnc3cccc(N)c32)c1,i,0.83,.,-0.3,97,.,-15
O=C(Nc1cccc(Cl)c1)Nc1sccc1-c1nc2ccccc2s1,i,1.1,.,.,102,.,.
O=C(CN1CCOCC1)Nc1nc2ccc(Br)cc2s1,i,0.97,98,-2.9,102,21,-6
COC(=O)c1scc(C)c1NC(=O)CSc1ccc(Cl)cc1,i,0.99,.,.,98,.,.
O=C(NCc1ccc(F)cc1)c1noc2c1CCCCC2,i,1.1,105,-1.9,98,-19,-8
Cc1csc(SCC(=O)N(C)c2c(N)n(Cc3ccccc3)c(=O)[nH]c2=O)n1,i,0.95,94,.,102,-36,-5
Cc1ccc(C(=O)O/N=C(\c2ccccc2)c2ccncc2)cc1,.,.,110,.,107,-38,0
Cc1nn(C)c(C)c1NC(=O)/C(C#N)=C\N(C)C,i,1.4,.,.,99,.,.
O=C(CSc1nnnn1-c1cccc2ccccc12)Nc1ccc(N2CCOCC2)c(Cl)c1,i,0.9,101,-1.9,107,18,-6
C=CCN(c1ccc(C(=O)Nc2ccc3c(c2)OCO3)cc1)S(C)(=O)=O,i,1.2,.,.,89,.,-2
COc1ccc(CC(=O)N2N=C(C)CC2(O)c2cccnc2)cc1 (centres undefined),i,1,108,-1.5,104,-14,-9

The listing continues:
SMILES,HSV augment,HSV augment primary fold,INS promoter inh cell count,GALR2 agonist,RGS16-Gao HTS,INS promoter inh,PKD1 kinase inh
O=C(/C=C/c1cccc(Br)c1)NCC1CCCCC1,i,0.98,.,-1.0,103,.,9
C=CCN(c1cccc(C(F)(F)F)c1)S(=O)(=O)c1cccc(C(=O)OCC(=O)NC)c1,i,1.1,.,-0.3,110,.,-3
CC(=O)[C@@H]1[C@@H]2C(=O)N(c3ccccc3F)C(=O)[C@@H]2[C@H]2c3ccccc3C=NN12,i,1.1,.,.,96,.,.
COc1cc(N(C(=O)Cc2cccs2)C(C(=O)NC2CCCCC2)c2ccc(C)cc2)ccc1-n1cnnn1 (centres undefined),i,0.95,66,0.1,97,-18,-11
OC1CCN(c2c3c(nc4cc(-c5ccc(Cl)cc5)nn24)CCC3)CC1,i,0.73,91,-0.5,109,33,-7
CC(C)[C@@H](N)C(=O)N/N=C/c1ccc2ncccc2c1,i,0.87,.,.,105,.,.
COc1ccccc1NS(=O)(=O)c1cccc(C(=O)N/N=C2\CC(=O)CC(C)(C)C2)c1,i,1,100,0.0,40,-10,4
O=C(Cc1c(F)cccc1Cl)Nc1ccccc1N1CCCCC1,.,.,55,.,107,21,-9
CCn1c(=O)c(C(=O)Nc2ccccc2S(N)(=O)=O)c(O)c2ccccc21,i,0.91,105,-2.1,59,12,-1
CCc1ccccc1NC(=O)Cn1nc(C(F)(F)F)cc1C1CC1,i,0.75,115,0.6,108,-33,-7
CCNc1ncnc2c1cnn2C,i,0.86,155,.,98,17,3
CC(SCC(=O)O)c1nc2ccccc2[nH]1 (centres undefined),i,1.1,.,.,101,.,.
Cc1ccc(/C=C2/C(=O)N=C(N)N2C)s1,i,0.91,138,0.8,118,-158,-11
CCN(CC)S(=O)(=O)c1ccc(C(=O)Nc2cccc(C)c2)cc1,i,0.91,64,-2.1,105,24,3
O=C(COc1ccccc1)Nc1cc(C(F)(F)F)ccc1N1CCCC1,i,1,122,-2.6,100,-77,-3
CCSc1nc2c(c(=O)n1-c1ccc(F)cc1)SCC2,i,1,125,-0.9,115,43,-11
Cc1nonc1OCCn1nnnc1N,i,0.93,59,-2.1,105,16,-4
NC(=O)CC(NC(=O)Cc1cccc2ccccc12)c1ccc(NCc2cc(F)ccc2F)c([N+](=O)[O-])c1 (centres undefined),i,0.77,.,.,100,.,.
c1ccc2[nH]c(CSc3nnc(-c4ccncc4)o3)nc2c1,i,0.92,120,-0.9,113,-22,-13
CCN1CCN(c2nc3c(C)cccn3c(=O)c2/C=C(\C#N)S(=O)(=O)c2ccccc2)CC1,i,0.91,129,-0.6,99,4,-6

Grouped by structure, those above containing a tert-butyl group.
SMILES,HSV augment,HSV augment primary fold,INS promoter inh cell count,GALR2 agonist,RGS16-Gao HTS,INS promoter inh,PKD1 kinase inh
CCCCS(=O)CC(O)COc1ccc(C(C)(C)C)cc1 (centres undefined),i,0.94,71,0.1,98,34,-8
CC(C)(C)C(=O)N1CCC(O)(CS(=O)(=O)c2ccc(Cl)c(Cl)c2)CC1,i,1,120,.,114,22,0

(further entries)
SMILES,HSV augment,HSV augment primary fold,INS promoter inh cell count,GALR2 agonist,RGS16-Gao HTS,INS promoter inh,PKD1 kinase inh
O=C(O)c1cccc(NC(=O)C23CC4CC(C2)CC(n2cnc(Cl)n2)(C4)C3)c1,i,1,110,0.4,96,-49,1
COc1ccc(NC(=O)C(c2ccccc2)N(C)C(=O)c2cnccn2)cc1 (centres undefined),i,1,.,-0.8,39,.,-12
CC(C)CNS(=O)(=O)c1ccc(NC(=O)Cn2nc(-c3ccc(F)cc3)ccc2=O)cc1,i,0.88,92,-1.9,128,-50,7
Cc1cccc(C(=O)NNC(=O)c2cccc([N+](=O)[O-])c2)c1,i,1,.,.,98,.,-11
CN(C)c1ccc(/C=N/NC(N)=S)cc1[N+](=O)[O-],i,0.94,135,.,116,-21,0
N#Cc1cnn2c(C(F)(F)F)c3c(nc12)CCCC3,i,1,.,.,82,.,-1
N=c1n(CCN2CCCC2)c2ccccc2n1CC(O)c1ccco1 (centres undefined),i,0.98,93,-0.9,97,-30,-5
COc1ccc(-n2c(C)cc(C(=O)CN3C(=O)C(=O)N(Cc4ccccc4)C3=O)c2C)cc1,i,0.8,79,.,106,8,5
COC(=O)C1=C(C)N(c2ccc(C)cc2)/C(=C/c2cccs2)C1=O,i,0.97,96,-0.8,99,26,-7
C=CCOC(=O)C1=C[C@H](c2coc3ccccc3c2=O)[C@@H](CCCO)[C@H](OCC)O1,i,0.79,.,.,99,.,-6
Cc1cc(C)nc(/N=C(\N)Nc2ccc([N+](=O)[O-])cc2)n1,i,0.95,53,-0.2,114,-21,-2
CCc1cccc(NC(=O)CN(C)S(=O)(=O)c2cccc3cccnc23)c1,i,1.2,.,.,105,.,.
